ALR H2O2 inh = inhibitors of human sulfhydryl oxidase ALR | AID 485317 | P55789 | inhibition, % (no concentration beside the values) | purified ALR, DTT oxidation, H2O2 HRP-luminol luminescence | 290,000 tested, 3.8% active;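 active means mean and each replicate at 75% or more; inconclusive means only one of the two met; inactive means neither met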;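 further: stock transfer was 7.5 nL into about 7.5 µL; 0% = neutral wells and 100% = wells with inactivated enzyme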
Calb FLC = affects C. albicans growth with fluconazole; C. albicans CaCi-2 (fluconazole-resistant clinical isolate) + fluconazole, Alamar Blue growth, 48 h; 300,000 tested, 0.57% active; AID 1979; growth inhibition, % (concentration not given with the values);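 active means most replicates above 75%; inconclusive means exactly half above 75%; inactive means most below 75%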;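 further: all wells also contain fluconazole at 8 µg/ml as a sub-toxic cotreatment; 0% = median of DMSO wells and 100% = median of geldanamycin control wells; wells of about 8 µL received 7.5 nL stock; the first replicate is given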
RanGTP-Imp inh = inhibitors of RanGTP-importin-beta interaction, primary screen, biochemical, FRET, CFP-Ran, YFP-importin-beta, homogeneous. cell-free CFP-Ran/YFP-importin-beta FRET ratio. inhibition, % (concentration not given with the values). 300,000 tested, 1.1% active. AID 2216;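 active means most replicates above 15%; inconclusive means exactly half above 15%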;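 further: 0% = DMSO wells and 100% = Ran loaded with GDP instead of GTP; wells of about 40 µL received 100 nL stock; the first replicate is given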
Vif A3G = HIV-1 Vif–A3G interaction blockers – biochemical, TR-FRET, GST-Vif 1-94, biotin-A3G peptide, dose response retest, primary screen (AID 1117319) | inhibition, %, or IC50 in µM where a hit was titrated | 260,000 tested, 0.57% active | TR-FRET GST-Vif / biotin-A3G peptide binding; higher % means a stronger effect; test concentration not given here; strong numbers were not always called active;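 active means above the screen mean plus three standard deviations and confirmed in dose response; inconclusive means results disagree or hit not tested in dose response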;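 further: Vif residues 1-94 fused to GST binding biotinylated APOBEC3G peptide 110-148; 0% = full assay without inhibitor and 100% = GST in place of GST-Vif; retest series ran down from 100 µM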
LANA-H2A inh = blocks KSHV LANA binding to histone H2A/H2B; cell-free LANA-H2A/H2B peptide, fluorescence polarization; inhibition, % (test concentration not listed); Q9QR71; 320,000 tested, 0.6% active; in the data active means inhibition mostly above about 10%, no sharp cut-off; inactive means mostly below about 6.7%;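 further: stock transfer was 7.5 nL into about 10 µL; 0% = median of vehicle wells and 100% = median of positive control wells; one replicate is shown; the record names a cut of 25% in any replicate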
B2AR ag = agonists of human beta-2 adrenergic receptor inducing internalization; response, % (test concentration not listed); P07550; Am2.2-beta2AR cells, FAP receptor internalization, flow cytometry; reference of the scale not given here; AID 504454; 340,000 tested, 0.43% active;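 active means response above a set limit, near 3 SD of response in nonfluorescent compounds, cut at about 42% in these data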;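 further: stock transfer was 100 nL into about 11 µL; a reference agonist was the positive control; negative values mostly stem from fluorescent compounds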
Target sequence (P07550 whole entry, looked up): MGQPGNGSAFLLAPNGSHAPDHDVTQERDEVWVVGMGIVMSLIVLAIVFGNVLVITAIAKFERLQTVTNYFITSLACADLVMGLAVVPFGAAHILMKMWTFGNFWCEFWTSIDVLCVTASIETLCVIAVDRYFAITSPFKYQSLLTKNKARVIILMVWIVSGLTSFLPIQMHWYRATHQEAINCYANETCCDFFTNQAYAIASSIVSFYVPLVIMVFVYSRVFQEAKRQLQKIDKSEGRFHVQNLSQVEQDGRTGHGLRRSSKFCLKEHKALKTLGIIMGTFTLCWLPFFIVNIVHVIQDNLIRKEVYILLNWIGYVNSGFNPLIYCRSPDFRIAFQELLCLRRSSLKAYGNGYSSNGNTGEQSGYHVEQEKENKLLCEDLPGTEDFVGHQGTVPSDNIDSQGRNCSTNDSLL
HNF4A DNA FP = change in binding of human HNF4 alpha to DNA | HNF4a-FITC DNA binding, fluorescence polarization, 1 h | activity change, % at 10 µM | 360,000 tested, 0.3% active | AID 1224865; in the data active means activity change above about 30%, passing the limit was not always enough;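 further: controls were the assay level and a saturating level of protein; the project sought stronger binding though the title names inhibitors; some compounds called inactive have numbers as strong as hits; positive values seem to mean higher polarization but the record does not say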
Target sequence (P41235 whole entry, looked up): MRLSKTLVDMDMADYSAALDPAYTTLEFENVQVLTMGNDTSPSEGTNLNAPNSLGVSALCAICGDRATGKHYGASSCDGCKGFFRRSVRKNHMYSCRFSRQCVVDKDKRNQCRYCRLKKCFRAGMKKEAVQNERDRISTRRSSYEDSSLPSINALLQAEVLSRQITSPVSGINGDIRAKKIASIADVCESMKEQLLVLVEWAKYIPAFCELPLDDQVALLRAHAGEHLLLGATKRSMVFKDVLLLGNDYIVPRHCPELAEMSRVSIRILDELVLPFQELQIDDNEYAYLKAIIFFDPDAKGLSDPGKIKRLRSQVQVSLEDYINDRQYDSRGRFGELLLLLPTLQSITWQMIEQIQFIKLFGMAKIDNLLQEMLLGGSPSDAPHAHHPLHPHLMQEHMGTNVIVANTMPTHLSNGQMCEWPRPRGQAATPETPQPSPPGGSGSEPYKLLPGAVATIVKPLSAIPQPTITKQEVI
* marks the source's active call; other numbers are inactive results; ? = inconclusive; . = no result given.

molecule | ALR H2O2 inh | Calb FLC | B2AR ag | Vif A3G | RanGTP-Imp inh | LANA-H2A inh | HNF4A DNA FP
CN(C1CCCCC1)S(=O)(=O)c1ccc(S(=O)(=O)N(CC(=O)Nc2ccccc2)C2CC2)cc1 | -5 | -3 | -1 | ? | 0.0 | -6.7 | -1.7
C=C(C)C1CC=C(C)/C(=N\NC(=O)CCc2ccccc2)C1 (stereo not given) | -5 | 0 | -1 | -2% | 4.8 | 0.7 | 0.2
CC(C)c1ccc(/C=N/n2cnnc2)cc1 | -5 | 16 | -6 | . | 3.2 | -3.1 | 2.0
COc1ccc(CN(C)C(=O)CNC(=O)c2ccc3ccccc3c2)c(OC)c1 | -4 | -4 | -2 | 1% | 4.1 | 1.8 | -0.8
COc1cccc(/C=C/C(=O)Nc2ccc(OC)nc2)c1 | -9 | 4 | -5 | -1% | -1.2 | 6.8 | 3.2
Cc1ccc(S(=O)(=O)N(C)CC(=O)Nc2cc(C)ccn2)cc1 | -7 | 4 | -4 | 1% | 4.0 | 1.4 | 3.1
Cc1ccccc1NS(=O)(=O)c1ccc(C(=O)NCC(C)(C)N2CCOCC2)cc1 | -5 | 6 | -6 | -1% | -2.7 | -0.9 | 1.9
COc1ccccc1S(=O)(=O)Cc1ccc(C(=O)NCc2cccnc2)o1 | . | 0 | 35 | -3% | -3.6 | -1.7 | 4.9
O=C1N(c2cccc(Cl)c2)C(c2ccc(Cl)cc2)N2CCCN12 (stereo not given) | -2 | 7 | -9 | . | 4.6 | -2.7 | -0.1
CN(CCO)S(=O)(=O)c1ccc2c(c1)C(=O)c1cc(S(=O)(=O)N(C)CCO)ccc1-2 | -11 | -3 | -5 | . | 5.5 | -1.4 | 0.6
O=C1COc2ccc(C(=O)COC(=O)c3ccccc3Cl)cc2N1 | -5 | . | 5 | -22% | . | -1.8 | 0.1
COc1ccc(C(=O)NCc2ccc3c(c2)OCO3)cc1 | 0 | 0 | 1 | -5% | 7.8 | 0.2 | -5.0
CN(C)S(=O)(=O)c1ccc(F)c(C(=O)Nc2ccccc2C(=O)NC2CC2)c1 | . | . | -7 | -10% | . | . | -0.6
COc1ccc(CN(C)C(=O)c2ccc(NS(=O)(=O)c3ccc(C)c([N+](=O)[O-])c3)cc2)c(OC)c1OC | 7 | 1 | 4 | 6% | 1.2 | -2.9 | -0.8
COc1ccc(C(=O)OCC(=O)c2ccc3c(c2)NC(=O)CO3)cc1[N+](=O)[O-] | -3 | . | -4 | 2% | . | 7.2 | 0.4
CC(Oc1ccc(Br)cc1)C(=O)NC1CCN(Cc2ccccc2)CC1 (stereo not given) | -6 | . | -2 | 4% | -2.0 | 1.4 | 1.5
Cc1ccc(CS(=O)Cc2ccc(C(=O)NCCc3ccccc3)o2)cc1 (stereo not given) | 2 | -17 | 7 | -11% | 1.3 | 1.8 | 1.9
Cc1ccc(NS(=O)(=O)c2ccc(C(=O)NCCN3CCOCC3)cc2)cc1 | 1 | . | 4 | -4% | . | -0.6 | -0.6
COc1ccc(C(c2nnnn2C2CCCC2)N2CCc3ccccc3C2)cc1OC (stereo not given) | . | 1 | 4 | 3% | 5.7 | . | -1.0
c1ccc(OCc2nn3c(-c4ccco4)nnc3s2)cc1 | -5 | -10 | -11 | 6% | -3.2 | 3.7 | 4.5
CC(=O)OCCCCCCCCCCC[N+]1(C)CCCCC1 | -3 | -46 | 5 | 4% | . | -0.4 | 5.0
CC1=C(C(=O)OCc2ccc3c(c2)OCO3)C(c2ccc(Cl)cc2)NC(=O)N1 (stereo not given) | . | -5 | -3 | -3% | -4.4 | . | 0.1
c1ccc(Nc2ccc(-n3ccnc3)nn2)cc1 | . | 0 | 4 | 3% | -5.4 | -3.0 | 0.0
CCN(C(=O)CN1CCc2ccccc21)c1c(N)n(Cc2ccccc2)c(=O)[nH]c1=O | 3 | -1 | 15 | 13% | 6.5 | 0.1 | 16
C=CCNC(=S)N/N=C/c1ccc(-c2ccc(Br)cc2)o1 | . | -5 | -5 | 11% | -2.6 | -2.2 | 8.1

Two records drawn at random from the list so far, as already listed:
molecule | ALR H2O2 inh | Calb FLC | B2AR ag | Vif A3G | RanGTP-Imp inh | LANA-H2A inh | HNF4A DNA FP
CC(=O)OCCCCCCCCCCC[N+]1(C)CCCCC1 | -3 | -46 | 5 | 4% | . | -0.4 | 5.0
Cc1ccc(S(=O)(=O)N(C)CC(=O)Nc2cc(C)ccn2)cc1 | -7 | 4 | -4 | 1% | 4.0 | 1.4 | 3.1

Following part.
molecule | ALR H2O2 inh | Calb FLC | B2AR ag | Vif A3G | RanGTP-Imp inh | LANA-H2A inh | HNF4A DNA FP
CC(C)C[C@H](NC(=O)C1CC(=O)N(c2ccc3c(c2)OCO3)C1)C(=O)NC1CCCCC1 (stereo not given in full) | -5 | 0 | 4 | -1% | -4.9 | 0.3 | 1.8
Cc1ccc(C(=O)NCCCNC(=O)c2ccccc2C)cn1 | 2 | -8 | -1 | . | 0.9 | 13 | 0.9
CC(CCc1ccccc1)NC(=O)COC(=O)c1ccc(NC(=O)CC#N)cc1 (stereo not given) | 0 | 7 | -2 | -2% | -3.9 | -2.4 | -2.2
Cc1c(C(=O)N(C)C)sc(NC(=O)c2cc([N+](=O)[O-])cc([N+](=O)[O-])c2)c1C#N | -5 | 4 | 11 | 6% | 2.3 | -1.0 | -2.1
Cn1nnnc1SCC(=O)N1CCN(C(c2ccccc2)c2ccccc2)CC1 | -8 | 6 | 4 | 11% | 0.2 | -1.6 | -0.1
O=C1Cc2ccccc2C(c2c(Cl)cccc2Cl)N1 (stereo not given) | -1 | 2 | 1 | . | -1.8 | -1.1 | 2.0
CCOc1cc(C(=O)Nc2ccc3c(c2)OCO3)ccc1OC(F)F | -4 | -17 | 3 | -4% | 0.3 | 4.4 | -3.8
CN(C(=O)c1ccc(NC(=O)Cc2ccc(NC(=O)C3CCN(C(=O)C4CCCCC4)CC3)cc2)cc1)C1CCCC1 | . | . | 2 | -4% | . | . | 1.2
Cc1nn(C)c(C(=O)N2CCOCC2)c1Cl | -2 | -10 | 0 | 6% | -2.9 | 1.7 | 0.7
CC(NC(=S)N1CCN(c2ccccc2)CC1)c1ccccc1 (stereo not given) | 0 | -7 | -3 | 29% | 1.9 | 2.5 | 2.7
COC(=O)Nc1nc2c(C)cccc2s1 | 0 | -12 | 3 | 2% | 1.1 | 3.9 | -0.6
O=C(COc1ccc(Br)cc1)Nc1ccc(-c2nnc(-c3ccco3)o2)cc1 | 6 | 12 | -18 | -1% | -2.8 | 3.2 | 4.9
COc1ccc(C2OC(=O)CC2C(=O)NCc2ccc(F)cc2)cc1OC (stereo not given) | 1 | -29 | -4 | ? | 3.5 | -1.6 | 0.7
CN1c2ccccc2C(=O)NC1c1ccc(Cl)cc1 (stereo not given) | -6 | 4 | 2 | -4% | 11 | -3.5 | 4.0
COc1ccc(OC)c(/C=N/NC(=O)Cn2ccnc2C)c1 | -5 | 2 | 2 | 5% | ? | -4.5 | -1.8
CNS(=O)(=O)c1ccc(C)c(S(=O)(=O)NC)c1 | -2 | -1 | 4 | -6% | -1.2 | -4.6 | 0.1
CCOc1ccc(S(=O)(=O)NCc2cccs2)cc1C(C)C | . | . | -6 | 6% | . | . | 0.7
Cc1cc(NC(=O)c2ccc(-c3ccccc3F)o2)no1 | -12 | ? | 13 | 17% | 0.9 | 1.6 | -0.4
CN(Cc1ccsc1)C(=O)CCc1nnc(CCCc2ccccc2)o1 | -6 | 1 | -10 | -1% | 2.5 | -0.3 | -2.0
C/C(N)=C(/C#N)C(=O)CSc1nc2ccccc2c(=O)n1CCCO | -17 | -2 | -3 | . | -1.6 | 3.8 | 1.8
Cc1ccc(/C=N/N2CCN(Cc3ccc(C)cc3)CC2)cc1 | -3 | 22 | 1 | 0% | 2.4 | 2.4 | 1.3
O=C(CN1C(=O)COc2ccccc21)NCCN1CCCC1 | -2 | 1 | -4 | . | 1.2 | -4.5 | -2.2
COc1ccccc1N1CCN(C(=O)C(C)N(c2ccccc2)S(C)(=O)=O)CC1 (stereo not given) | 44 | 11 | -2 | 29% | 0.3 | 1.5 | -0.1
COc1ccccc1C(=O)OCC(=O)Nc1ccccc1OC(F)F | 1 | 1 | 7 | -4% | -0.9 | -4.7 | -4.2
CNC(=O)/C(C#N)=C/c1ccc(OCCOc2ccccc2)cc1 | -4 | -2 | -10 | 5% | 1.2 | 6.5 | -1.4

Rewritten with values under each structure: part of the list above.
The line under a structure holds: ALR H2O2 inh, Calb FLC, B2AR ag, Vif A3G, RanGTP-Imp inh, LANA-H2A inh, HNF4A DNA FP
- CN1c2ccccc2C(=O)NC1c1ccc(Cl)cc1 (stereo not given)
 : -6, 4, 2, -4%, 11, -3.5, 4.0
- COc1ccc(OC)c(/C=N/NC(=O)Cn2ccnc2C)c1
 : -5, 2, 2, 5%, ?, -4.5, -1.8
- CNS(=O)(=O)c1ccc(C)c(S(=O)(=O)NC)c1
 : -2, -1, 4, -6%, -1.2, -4.6, 0.1
- CCOc1ccc(S(=O)(=O)NCc2cccs2)cc1C(C)C
 : ., ., -6, 6%, ., ., 0.7
- Cc1cc(NC(=O)c2ccc(-c3ccccc3F)o2)no1
 : -12, ?, 13, 17%, 0.9, 1.6, -0.4
- CN(Cc1ccsc1)C(=O)CCc1nnc(CCCc2ccccc2)o1
 : -6, 1, -10, -1%, 2.5, -0.3, -2.0
- C/C(N)=C(/C#N)C(=O)CSc1nc2ccccc2c(=O)n1CCCO
 : -17, -2, -3, ., -1.6, 3.8, 1.8
- Cc1ccc(/C=N/N2CCN(Cc3ccc(C)cc3)CC2)cc1
 : -3, 22, 1, 0%, 2.4, 2.4, 1.3
- O=C(CN1C(=O)COc2ccccc21)NCCN1CCCC1
 : -2, 1, -4, ., 1.2, -4.5, -2.2
- COc1ccccc1N1CCN(C(=O)C(C)N(c2ccccc2)S(C)(=O)=O)CC1 (stereo not given)
 : 44, 11, -2, 29%, 0.3, 1.5, -0.1
- COc1ccccc1C(=O)OCC(=O)Nc1ccccc1OC(F)F
 : 1, 1, 7, -4%, -0.9, -4.7, -4.2
- CNC(=O)/C(C#N)=C/c1ccc(OCCOc2ccccc2)cc1
 : -4, -2, -10, 5%, 1.2, 6.5, -1.4

Next section.
molecule | ALR H2O2 inh | Calb FLC | B2AR ag | Vif A3G | RanGTP-Imp inh | LANA-H2A inh | HNF4A DNA FP
CCOC(=O)C1=C(C)N=c2s/c(=C/c3ccc(OCC(=O)O)cc3)c(=O)n2C1c1cc(OC)c(OC)c(OC)c1 (stereo not given) | 12 | 3 | 12 | . | 1.3 | -0.2 | 0.7
COc1ccc(NC(=O)CSc2ccc(-c3ccco3)nn2)cc1OC | 54 | -2 | -8 | 12% | -1.4 | 1.2 | -2.0
CC(NC(=O)c1cccc2ccccc12)c1ccc2c(c1)CCCC2 (stereo not given) | -7 | 7 | 7 | . | -3.7 | 2.3 | -2.3
Cn1c(SCC(=O)NCCc2ccc(S(N)(=O)=O)cc2)nc2ccccc2c1=O | -17 | 16 | -5 | 5% | 2.2 | 0.8 | -0.4
COc1cccc(-n2nnc3c(=O)n(Cc4c(F)cccc4Cl)cnc32)c1 | -1 | 4 | 0 | -6% | -0.5 | -1.5 | -0.9
O=[N+]([O-])c1ccc(Cl)c(S(=O)(=O)Nc2ccc(S(=O)(=O)N3CCOCC3)cc2)c1 | -2 | -9 | 3 | . | 5.7 | 8.7 | 0.1

Compound activity from PubChem.
